UCH37 inh = human UCH37 deubiquitinating enzyme inhibition; purified proteasome/UCH37, Ub-AMC cleavage fluorescence; inhibition, % (concentration not given with the values); 330,000 compounds, 0.33% hits;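 active = mean of two replicates above 20%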;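 note: 0% = compound-free wells with enzyme and 100% = wells lacking proteasome; stock transfer was 100 nL into about 20 µL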
Target sequence (Q9Y5K5 whole entry, looked up): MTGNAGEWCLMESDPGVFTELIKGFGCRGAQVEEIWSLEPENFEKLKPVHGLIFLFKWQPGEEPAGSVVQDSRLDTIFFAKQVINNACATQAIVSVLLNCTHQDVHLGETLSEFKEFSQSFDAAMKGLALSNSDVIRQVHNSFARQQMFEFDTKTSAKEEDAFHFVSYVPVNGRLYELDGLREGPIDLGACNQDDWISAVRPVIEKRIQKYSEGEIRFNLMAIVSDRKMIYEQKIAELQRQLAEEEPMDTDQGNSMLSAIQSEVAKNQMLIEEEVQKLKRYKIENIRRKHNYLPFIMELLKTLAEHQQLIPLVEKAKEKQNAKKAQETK
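Material: Human UCH37 enzyme supplied as purified proteasome complex | Schedule: 30 min preincubation with enzyme, 25 min cleavage at room temperature | Detection: AMC fluorescence 355/460 nm | Measure: % inhibition of Ub-AMC cleavage fluorescence | Controls: Wells without proteasome as full block, compound-free enzyme plus substrate as uninhibited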
E coli growth = E. coli growth inhibition; 330,000 compounds, 0.21% hits; Escherichia coli growth, OD600, 23 h; active compounds read low; OD600 absorbance (concentration not given with the values);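 active = OD600 absorbance below the run mean of sample wells minus 3.6 SD, in any replicate, cut at about 0.56 in these data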;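 note: stock transfer was 300 nL into about 60 µL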
RanGTP-Impb inh = disruptors of Ran-importin-beta complex formation – biochemical, FRET, CFP-Ran, YFP-importin-beta, homogeneous, primary screen; inhibition, % (no concentration beside the values); cell-free CFP-Ran/YFP-importin-beta FRET ratio; 300,000 compounds, 1.1% hits; AID 2216;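 active = most replicates above 15%; inconclusive = exactly half above 15%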;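 note: 0% = DMSO wells and 100% = Ran loaded with GDP instead of GTP; wells of about 40 µL received 100 nL stock; the first replicate is given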
HNF4A DNA FP = change in binding of human HNF4 alpha to DNA; P41235; HNF4a-FITC DNA binding, fluorescence polarization, 1 h; activity change, % at 10 µM; 360,000 compounds, 0.3% hits; AID 1224865; in the data active = activity change above about 30%, passing the limit was not always enough;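 note: controls were the assay level and a saturating level of protein; the project sought stronger binding though the title names inhibitors; some compounds called inactive have numbers as strong as hits; positive values seem to mean higher polarization but the record does not say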
Vif A3G = inhibitors of Vif binding to APOBEC3G peptide, primary screen, biochemical, TR-FRET, GST-Vif 1-94, biotin-A3G peptide, dose response retest (AID 1117319) | TR-FRET GST-Vif / biotin-A3G peptide binding; higher % means a stronger effect; test concentration not given here; strong numbers were not always called active | one-dose inhibition, %; IC50 in µM for titrated hits | 260,000 compounds, 0.57% hits;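 active = above the screen mean plus three standard deviations and confirmed in dose response; inconclusive = results disagree or hit not tested in dose response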;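 note: Vif residues 1-94 fused to GST binding biotinylated APOBEC3G peptide 110-148; 0% = full assay without inhibitor and 100% = GST in place of GST-Vif; retest series ran down from 100 µM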
FGF22 binding = shifts melting point of recombinant human FGF22 | Q9HCT0 | AID 651658 | 340,000 compounds, 1.5% hits | calls only at 9.99 µM | recombinant FGF22 thermal shift, SYPRO orange fluorescence; percent of sucrose octasulfate shift, DMSO zero;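 active = melting point raised past a set limit in the mean and every replicate; inconclusive = no clear call; three in four hits are not shown here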
Target sequence (Q9HCT0 whole entry, looked up): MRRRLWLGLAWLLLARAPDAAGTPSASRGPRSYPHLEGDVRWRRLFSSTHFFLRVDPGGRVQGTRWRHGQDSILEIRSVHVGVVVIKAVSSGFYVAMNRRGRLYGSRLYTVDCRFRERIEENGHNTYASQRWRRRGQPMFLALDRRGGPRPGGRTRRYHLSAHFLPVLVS
MLL AF4-AF9 inh = inhibitors of human MLL-AF4/AF9 interaction; 350,000 compounds, 0.47% hits; inhibition, % at 10 µM; AlphaScreen, biotin-AF4 peptide binding to FLAG-AF9; P42568;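 active = every replicate reaching a set inhibition limit, whatever the replicate mean, cut at about 25% in these data; inconclusive = mean inhibition reaches that limit but some replicates miss it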;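 note: 0% = plate neutral control median and 100% = total signal loss; the record names both 10 and 1 µM as test concentration; the first replicate is given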
Target sequence (P42568 whole entry, looked up): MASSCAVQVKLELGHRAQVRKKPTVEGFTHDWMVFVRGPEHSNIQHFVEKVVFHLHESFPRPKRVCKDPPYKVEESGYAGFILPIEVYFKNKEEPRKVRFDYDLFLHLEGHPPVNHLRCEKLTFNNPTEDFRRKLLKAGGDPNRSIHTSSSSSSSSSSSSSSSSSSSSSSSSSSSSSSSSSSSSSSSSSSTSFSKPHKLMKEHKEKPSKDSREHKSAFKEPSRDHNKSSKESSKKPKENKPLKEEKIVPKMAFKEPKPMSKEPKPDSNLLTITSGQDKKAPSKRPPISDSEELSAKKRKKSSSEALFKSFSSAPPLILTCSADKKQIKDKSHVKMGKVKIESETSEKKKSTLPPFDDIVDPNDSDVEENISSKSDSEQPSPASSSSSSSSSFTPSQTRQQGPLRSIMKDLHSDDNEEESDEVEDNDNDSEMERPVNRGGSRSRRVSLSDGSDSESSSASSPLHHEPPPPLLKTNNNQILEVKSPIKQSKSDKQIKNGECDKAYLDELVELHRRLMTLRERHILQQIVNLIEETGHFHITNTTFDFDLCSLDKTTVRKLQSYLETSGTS
Starred values were filed as active, the others as inactive; i = inactive; ? = inconclusive; . = not tested or not shown; & = joins results of further samples. An excerpt (hit frequency here may not be typical).

SMILES | UCH37 inh | E coli growth | RanGTP-Impb inh | HNF4A DNA FP | Vif A3G | FGF22 binding | MLL AF4-AF9 inh
O=C(NC1CC1)C1CSC(c2cccnc2)=N1 (stereo unspecified) | 1.1 | 0.67 | 1.1 | -3.1 | 5.2% | . | .
C/C=C(\C)C(=O)N[C@@H](c1ccccc1)[C@@H](O)C(=O)O[C@H]1C[C@@]2(O)[C@@H](OC(=O)c3ccccc3)C3[C@](C)(C(=O)[C@H](OC(C)=O)C(=C1C)C2(C)C)[C@@H](O)C[C@H]1OC[C@@]31OC(C)=O (stereo partly specified) | 2.5 | 0.694 | 1.8 | 3.4 | . | i | -1.8
COC(=O)c1nc(-c2ccc3c(n2)C(=O)C(N)=C(OC)C3=O)c(N)c(-c2ccc(OC)c(OC)c2O)c1C | 69.0* | 0.694 | -13.9 | 2.0 | 12.6% | i | 12.2
O=c1[nH]c(=S)n(-c2ccc(Cl)cc2)c(O)c1C=Nc1ccc(N2CCOCC2)cc1 | 2.6 | 0.716 | 6.8 | 2.5 | -9.2% | i | -1.4
Cc1ccnc(-n2c(-c3ccccc3)nc3ccccc3c2=O)c1 | 1.6 | 0.724 | 4.1 | -3.0 | -1.2% | . | .
C/C(CC(c1ccccc1)c1c(O)c2ccccc2oc1=O)=N\Nc1ccc([N+](=O)[O-])cc1[N+](=O)[O-] (stereo unspecified) | . | . | -0.9 | -2.4 | ? | i | -0.4
CC(C)(C)C(=O)Nc1ccc(S(=O)(=O)N2CC3CC(C2)c2cccc(=O)n2C3)cc1 (stereo unspecified) | 4.9 | 0.718 | -2.1 | -2.7 | -9.3% | i | 0.9
NC(=S)N/N=C/c1coc2ccccc2c1=O | . | . | 0.0 | -1.4 | 10.7% | i | -6.9
CCc1ccc(OCCCN=C(C)c2c(O)n(C)c(=O)n(C)c2=O)cc1 | 0.6 | 0.731 | -2.4 | 2.2 | -2.3% | . | .
CN1C(=O)C(=Cc2ccc(N(C)C)c([N+](=O)[O-])c2)C(=O)N(C)C1=O | 6.8 | 0.708 | -0.2 | . | 6.7% | . | .
c1ccc2c(c1)CN(Cc1ccc3c(c1)OCO3)Cc1cnnn1-2 | . | . | . | -2.4 | -2.7% | i | 1.4
Cc1ccc2c(c1)Oc1ccccc1N=C2 | . | . | . | 0.7 | -3.3% | i | -0.9
COc1ccc(C2=NS(=O)(=O)N(C)C(C(=O)N3CCC4(CC3)OCCO4)=C2)cc1OC | 12.1 | 0.679 | ? | 3.7 | . | i | -0.2
COC(=O)C1=C(c2ccccc2OCc2ccccc2)C[C@@H]2CC[C@H]1N2C(=O)NCCOc1ccccc1 | 3.8 | . | . | -3.5 | . | i | -8.4
COC(=O)C1=C(c2ccc(F)cc2OCc2ccccc2)C[C@@H]2CC[C@H]1N2C(=O)NCCOc1ccc(OC)cc1 | 1.2 | . | . | 1.1 | . | i | 0.7
O=C(NCC(c1cccnc1)N1CCN(c2ccccc2F)CC1)Oc1ccccc1 (stereo unspecified) | -2.7 | 0.727 | 6.8 | -3.0 | 1.6% | . | .
Cn1cccc1/C=C1\C(=O)NC(=O)N(Cc2ccco2)C1=O | -0.2 | 0.673 | 0.3 | -25.4 | 9.46µM* | . | .
O=C1C2CCCN2C(c2cccs2)N1c1ccccn1 (stereo unspecified) | -0.6 | 0.69 | -1.3 | 1.8 | 82µM* | . | .
CCc1ccc(-c2nn(Cc3ccccc3)cc2C=O)cc1 | 0.1 | 0.682 | -1.6 | -0.5 | . | i | -6.0
C[C@]12CCC3C(CCC4=C/C(=N/OCC(=O)NC(CCC(N)=O)C(=O)O)CC[C@@]43C)C1CCC2O (stereo partly specified) | . | . | -2.2 | -0.1 | -4.9% | i | -1.2
COc1cc(OC)cc(C(=O)Nc2ccc(Br)cc2C(=O)c2ccccc2)c1 | 3.7 | 0.726 | 2.0 | -2.0 | ? | . | .
CN1C(=O)C2C[C@@]3(Br)c4ccccc4N(OOSc4ccccc4)[C@H]3N2C(=O)[C@@H]1Cc1ccccc1 (stereo partly specified) | 0.8 | . | -1.7 | 3.0 | . | . | .
COP(=O)(/C=C(\Cl)c1ccccc1)/C=C(\Cl)c1ccccc1 | 0.7 | 0.632 | 3.2 | 1.6 | -8.2% | i | 2.3
O=C(Cc1ccccc1)OCC(=O)c1ccc(F)cc1 | -1.5 | 0.674 | . | 1.0 | -9.3% | i | -1.6
O=C1NC(=S)NC(=O)C1C1CCCCC1 | 3.0 | 0.675 | 5.2 | 6.2 | . | i | -0.7

Further structures follow.
SMILES | UCH37 inh | E coli growth | RanGTP-Impb inh | HNF4A DNA FP | Vif A3G | FGF22 binding | MLL AF4-AF9 inh
CCOP(=O)(OCC)C(NC(=O)c1cccc([N+](=O)[O-])c1)C(Cl)(Cl)Cl (stereo unspecified) | 2.8 | 0.715 | 2.3 | 0.1 | -6.2% | i | 0.4
COC(=O)C1=C(c2ccc(F)cc2OCc2ccccc2)C[C@@H]2CC[C@H]1N2C(=O)NC1CC1 | 1.4 | . | . | -0.2 | . | i | 4.4
COC(=O)C1=C(c2cccc(C#N)c2)C[C@@H]2CC[C@H]1N2C(=O)NC1CCCCC1 | -0.8 | . | . | 1.0 | . | i | -9.8
COc1cc2c(cc1OC)C13CCN4CC5=CCOC6CC(=O)N2C1C6C5CC43 (stereo unspecified) (tested in a mixture with another compound) | 1.7 | 0.721 | -5.1 | 6.6 | -4.4% | i | 0.1
Clc1ccccc1CN1CCN(c2ccccc2Cl)CC1 | 2.1 | 0.622 | 2.9 | 0.5 | -0.5% | i | 1.1
CCOc1ccc2nc(N3CCC(C(=O)N4CCC5(CC4)OCCO5)CC3)sc2c1 | 5.2 | 0.664 | -4.0 | 7.0 | -4.3% | . | .
CCOc1ccc(S(=O)(=O)Nc2ccc(C(=O)NCC(c3ccc(OC)cc3)N3CCOCC3)cc2)cc1 (stereo unspecified) | 0.6 | 0.664 | . | -1.7 | . | i | -3.7
CNC(=O)Oc1ccc(C(=O)N2c3ccccc3NC(=O)C2C)cc1 (stereo unspecified) | 0.1 | 0.655 | -2.5 | 1.4 | 8.1% | i | ?
Cc1nc(-c2cccc(CN(C)C(=O)Oc3ccc([N+](=O)[O-])cc3)c2)no1 | . | . | . | 3.5 | . | i | 0.4
CC(C)C1C(C#N)=C(N)Oc2c1c(=O)oc1ccccc21 (stereo unspecified) | . | . | . | -5.9 | 1.4% | i | -0.7
Oc1ccc(CCN2CCCCC2)cc1 | -3.7 | 0.678 | . | 0.6 | 1.2% | i | 3.8
O=C(NN=Cc1ccc(N(CCCl)CCCl)cc1Cl)c1cccnc1 | . | . | . | -1.1 | . | i | 0.9
COc1cc([C@H]2OC[C@H]3[C@@H]2CO[C@@H]3c2cc(OC)c(O[C@@H]3O[C@H](CO)[C@@H](O)[C@H](O)[C@H]3O)c(OC)c2)cc(OC)c1O[C@H]1O[C@@H](CO)[C@H](O)[C@@H](O)[C@@H]1O | -3.8 | . | . | 4.2 | . | i | -3.0
O=C(OC1CC2CCC(N2)C1C(=O)O)c1ccccc1 (stereo unspecified) | 3.6 | 0.744 | . | 7.3 | . | i | .
COc1ccc(C(=O)C2CCCN(CCO)C2)c(C)c1 (stereo unspecified) | 1.9 | 0.658 | 1.2 | -0.4 | . | i | 6.3
Nc1ccccc1C(=O)c1ccccc1 | 5.1 | 0.735 | 1.2 | 0.5 | 8.7% | i | 3.9
CCOc1cc(C=O)ccc1O | 10.8 | 0.688 | . | -2.6 | . | i | -1.1
C=Cn1ccnc1P(=S)(c1nccn1C=C)c1nccn1C=C | 1.3 | 0.687 | ? | -0.1 | -2.2% | . | .
COc1ccccc1-n1c(O)c(C=NCc2ccc3c(c2)OCO3)c(=O)[nH]c1=O | 1.2 | 0.709 | ? | 5.9 | 3.1% | . | .
CCCOP(=O)(O)c1c([N+](=O)[O-])cc(C(F)(F)F)cc1[N+](=O)[O-] (tested in a mixture with another compound) | -0.4 | 0.661 | 1.2 | -0.5 | -5.5% | i | 5.1
NNC(=O)c1nc[nH]c1C(=O)Nc1ccc(Cl)cc1C(=O)c1ccccc1 | 5.2 | 0.602 | -5.8 | -1.0 | . | i | 2.0
CN(C)C1C(=O)C(C(N)=O)=C(O)C2(O)C(=O)C3=C(O)c4c(O)cccc4C(C)(O)C3C(O)C12 (stereo unspecified) | -3.2 | 0.064* | -5.4 | -13.3 | . | i | 6.5
O=c1[nH]c(O)c(C=NCCc2ccccc2)c(=O)[nH]1 | 0.8 | 0.641 | -2.0 | 4.7 | -0.9% | i | 0.6
CCCCn1c(O)c(C(=O)/C=C/c2c[nH]c3ccccc23)c(=O)[nH]c1=O | -1.7 | 0.692 | ? | 149.7 | 10.0% | i | -2.6
Cc1ccc(-c2nn(Cc3ccccc3)cc2C=O)cc1C | 1.8 | 0.636 | -0.3 | -1.3 | -3.8% | i | 0.5

Structural class: those above containing an NH in an aromatic ring
SMILES | UCH37 inh | E coli growth | RanGTP-Impb inh | HNF4A DNA FP | Vif A3G | FGF22 binding | MLL AF4-AF9 inh
O=c1[nH]c(=S)n(-c2ccc(Cl)cc2)c(O)c1C=Nc1ccc(N2CCOCC2)cc1 | 2.6 | 0.716 | 6.8 | 2.5 | -9.2% | i | -1.4
COc1ccccc1-n1c(O)c(C=NCc2ccc3c(c2)OCO3)c(=O)[nH]c1=O | 1.2 | 0.709 | ? | 5.9 | 3.1% | . | .
NNC(=O)c1nc[nH]c1C(=O)Nc1ccc(Cl)cc1C(=O)c1ccccc1 | 5.2 | 0.602 | -5.8 | -1.0 | . | i | 2.0
O=c1[nH]c(O)c(C=NCCc2ccccc2)c(=O)[nH]1 | 0.8 | 0.641 | -2.0 | 4.7 | -0.9% | i | 0.6
CCCCn1c(O)c(C(=O)/C=C/c2c[nH]c3ccccc23)c(=O)[nH]c1=O | -1.7 | 0.692 | ? | 149.7 | 10.0% | i | -2.6

(next part)
SMILES | UCH37 inh | E coli growth | RanGTP-Impb inh | HNF4A DNA FP | Vif A3G | FGF22 binding | MLL AF4-AF9 inh
CCOC(=O)C(NC(=O)CCl)(Nc1ccc(C(O)(C(=O)OCC)C(F)(F)F)cc1)C(F)(F)F (stereo unspecified) | 1.0 | 0.695 | -3.7 | 1.2 | . | i | 0.1
CN1C2CCC1CC(OC(=O)c1ccc([N+](=O)[O-])cc1)C2 (stereo unspecified) | 0.4 | 0.659 | 0.7 | -0.6 | . | i | -1.2
COC(=O)C1=C(c2cccc(OCc3ccccc3)c2)C[C@@H]2CC[C@H]1N2C(=O)NCCc1ccc(F)cc1 | 1.5 | . | . | 0.0 | . | i | 0.4
C[C@@H]1O[C@@H](O[C@H]2C[C@@H](O)[C@]3(CO)[C@H]4[C@H](O)C[C@]5(C)[C@@H](C6=CC(=O)OC6)CC[C@]5(O)[C@@H]4CC[C@]3(O)C2)[C@H](O)[C@H](O)[C@H]1O | 1.3&1.3 | . | 2.8 | -1.6 | . | . | .
NS(=O)(=O)c1ccc(-c2ccc(C=C3C(=O)NC(=S)NC3=O)o2)cc1 | . | . | 4.5 | . | . | i | -9.2
CCc1ccc(N2C(=O)NC(=O)C(Cc3ccc(OC)cc3OC)C2=O)cc1 (stereo unspecified) | 7.1 | 0.712 | -3.3 | -0.7 | 12.2% | . | .
CSc1nc(N)c(N=Nc2ccc([As](=O)(O)O)cc2)c(=O)[nH]1 | 16.2 | 0.696 | -1.1 | 4.3 | 25.4% | i | -10.9
C[C@@H](N)Cc1cnc[nH]1 | -0.8 | . | 5.6 | -1.1 | . | i | -0.9
Brc1cccc(CNCCc2ccc3c(c2)OCO3)c1 | -0.1 | 0.645 | 5.0 | -3.1 | -6.7% | i | 2.7

High-throughput results as filed in PubChem BioAssay.
